# KCNQ2 inh: KCNQ2 channel blockers in CHO-K1 cells – cell-based, FluxOR thallium flux, B-score, primary screen (AID 2156); O88943; 20 min; stronger effect = lower value; only compounds with negative scores are shown here; some inactives read as strong as hits; B-score at 10 µM; 310,000 tested, 1.1% active;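 active means fluorescence ratio B-score at most minus 3 library SDs, with starting brightness B-score within 2 library SDs, cut at about -5.5 in these data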
# Target sequence (O88943 whole entry, looked up): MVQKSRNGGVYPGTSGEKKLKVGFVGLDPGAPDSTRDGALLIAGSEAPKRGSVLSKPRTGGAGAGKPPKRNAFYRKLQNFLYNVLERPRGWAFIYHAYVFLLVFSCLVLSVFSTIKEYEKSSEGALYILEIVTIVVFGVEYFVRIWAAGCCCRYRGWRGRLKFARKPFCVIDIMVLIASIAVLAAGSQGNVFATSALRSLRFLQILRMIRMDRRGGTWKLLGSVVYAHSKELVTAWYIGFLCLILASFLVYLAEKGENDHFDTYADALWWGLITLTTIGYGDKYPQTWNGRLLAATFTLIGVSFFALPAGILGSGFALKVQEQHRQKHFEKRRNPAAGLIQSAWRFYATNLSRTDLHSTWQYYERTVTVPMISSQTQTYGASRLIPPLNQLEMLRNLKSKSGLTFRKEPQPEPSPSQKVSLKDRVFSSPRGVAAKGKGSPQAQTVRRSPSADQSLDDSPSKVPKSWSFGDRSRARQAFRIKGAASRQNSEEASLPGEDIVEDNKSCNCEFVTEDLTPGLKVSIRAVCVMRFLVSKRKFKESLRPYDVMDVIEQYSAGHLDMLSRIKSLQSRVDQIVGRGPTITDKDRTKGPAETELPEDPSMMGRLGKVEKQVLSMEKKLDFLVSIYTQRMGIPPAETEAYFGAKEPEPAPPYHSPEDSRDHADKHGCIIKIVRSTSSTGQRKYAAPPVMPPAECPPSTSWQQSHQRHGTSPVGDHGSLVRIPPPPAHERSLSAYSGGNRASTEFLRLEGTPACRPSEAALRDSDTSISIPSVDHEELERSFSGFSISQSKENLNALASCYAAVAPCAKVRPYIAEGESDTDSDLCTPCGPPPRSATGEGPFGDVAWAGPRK
# KCNQ2 inh baseline: further read-out of KCNQ2 inh, marked with its call; B-score; measured here: initial fluorescence intensity artifact check;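 brightness before thallium and not channel activity; 0 = typical well and far values either way flag optical interference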
# Active calls of the source: *; i = inactive.
SMILES | KCNQ2 inh | KCNQ2 inh baseline
O=C(COC(=O)C1C2CC3OC(=O)C1C3C2)Nc1cccc(C(F)(F)F)c1 (configuration not stated) | i | -0.1
COCCCNC(=S)N1CCN(C)CC1 | i | -1.3
Cc1ccc(C(=O)Nc2c3c(nn2-c2ccccc2)CS(=O)(=O)C3)cc1C | i | 0.81
Cn1c(-c2ccccc2)c[n+]2c1CCCCC2 | i | -0.58
CC1CC(C)CN(CCOc2cccc(Cl)c2Cl)C1 (configuration not stated) | i | -0.64
CCN1CCN(CCNC(=O)c2ccc3c(c2)N(Cc2cccc(Cl)c2)C(=O)c2ccccc2S3=O)CC1 (configuration not stated) | i | 0.06
NS(=O)(=O)c1cccc(NC(=O)CC23CC4CC(CC(Br)(C4)C2)C3)c1 | i | -0.44
Cc1ccc(S(=O)(=O)NCC(c2ccccc2)N2CCN(CCC#N)CC2)cc1 (configuration not stated) | i | 0.35
Cc1ccccc1CN1CCN(C(=O)CC(C)C)CC1 | i | -0.01
COCCNC(=O)CNC(c1ccccc1)c1ccccc1 | i | -1.3
O=C(NCC1CCCO1)c1ccc(OC2CCN(C(=O)C3CC3)CC2)cc1 (configuration not stated) | i | 0.09
Cc1ccc(NC(=O)CSC(C)c2nc3ccccc3c(=O)[nH]2)cc1 (configuration not stated) | i | 2.4
CCOC(=O)C(NCc1ccco1)(NC(=O)c1ccc(OC)cc1)C(F)(F)F (configuration not stated) | i | -0.73
CN1CCN(C(c2ccccn2)c2cc(Cl)c3cccnc3c2O)CC1 (configuration not stated) | i | 2.2
Brc1ccc(C2=NC(Cc3ccccc3)CO2)cc1 (configuration not stated) | i | 2.5
CCOC(=O)C1Nc2ccc(C(=O)O)cc2C2C=CCC12 (configuration not stated) | i | 0.46
CCN(CC)C(=O)C(=O)Nc1ccc(OCc2ccccc2)cc1 | i | 3.2
c1ccc(-n2c(-c3ccncc3)nnc2N2CCOCC2)cc1 | i | 1.3
OCCNCc1cccc2ccccc12 | i | 2.5
C/C(=N\Nc1ccccn1)c1cccs1 | i | 3.7
C/C(CC(=O)Nc1ccccn1)=N\NC(=O)c1ccccc1O | i | 1.8
CCOC(=O)N1CCN(C(=O)CS(=O)Cc2nc(-c3cccc(C)c3)oc2C)CC1 (configuration not stated) | i | 1.6
COc1ccccc1NC(=S)N(CCN(C)C)C(C)c1ccncc1 (configuration not stated) | i | 0.55
CCC(NC(=O)COC(=O)C1CC2CCCC(C1)C2=O)c1ccc(Br)cc1 (configuration not stated) | i | -1.4
COc1cccc(CNCCOCCO)c1OC | i | -2.6
O=C(CCN1CCN(C(=O)c2ccccc2)CC1)c1ccc(Br)cc1 | -9* | 0.84*
Cc1ccc(-c2nc(SCC(=O)N(C)C3CCS(=O)(=O)C3)[nH]c2-c2ccc(C)cc2)cc1 (configuration not stated) | i | -0.64
Cc1cc(C)cc(N=c2c([N+](=O)[O-])nn(-c3ccc(Cl)cc3)n2O)c1 | i | 0.54
CCON1C(=O)C(C)(C)N(OCC)C(=O)C1(C)C | i | 0.18
O=C1CC(N2CCN(c3ccc(F)cc3)CC2)C(=O)N1Cc1ccc(N2CCCC2=O)cc1 (configuration not stated) | i | 0.3

# Some of these compounds in order of molecular weight, low to high:
SMILES | KCNQ2 inh | KCNQ2 inh baseline
C/C(=N\Nc1ccccn1)c1cccs1 | i | 3.7
c1ccc(-n2c(-c3ccncc3)nnc2N2CCOCC2)cc1 | i | 1.3
C/C(CC(=O)Nc1ccccn1)=N\NC(=O)c1ccccc1O | i | 1.8
CCOC(=O)N1CCN(C(=O)CS(=O)Cc2nc(-c3cccc(C)c3)oc2C)CC1 (configuration not stated) | i | 1.6

# Going on with the list:
SMILES | KCNQ2 inh | KCNQ2 inh baseline
C=CCc1ccccc1OCC(O)CNC(=O)c1ccccc1C(=O)O (configuration not stated) | i | 2
Cc1c(C)n(CCC#N)c2ccccc12 | i | 0.85
Cc1ccc2c(c1)Oc1ccccc1C=C2C(=O)O | i | -0.11
CSc1nc2ccc(NC(=O)c3ccc(=O)[nH]c3)cc2s1 | i | -0.62
COc1ccc(C(C(=O)NCCC(C)C)N(CCO)C(=O)c2snc(C(N)=O)c2N)cc1OC (configuration not stated) | i | 0.89
O=P(Cc1nnco1)(c1ccccc1)c1ccccc1 | i | 1.4
Cc1ccccc1Oc1ncnc2oc(-c3ccccc3)cc12 | i | -2.4
CC1CCN(CC2C(=O)O[C@@H]3C[C@@]4(C)CCC[C@H](C)C4=C[C@H]23)CC(C)(C)C1 (some centres not stated) | i | 0.46
COC(=O)C1=C(C)NC(=O)/C1=C\c1cc(C)n(-c2ccccc2)c1C | i | -0.01
CCc1ccc(NS(=O)(=O)c2ccc3[nH]cc(C(=O)NCC4CCCO4)c(=O)c3c2)cc1 (configuration not stated) | i | -0.01
COc1cc(/C=C(/C#N)c2nc3ccccc3[nH]2)ccc1OCC(=O)Nc1ccccc1C(C)C | i | -2.1
CN1C(=O)/C(=C\c2ccc(-c3ccccc3)o2)SC1=S | i | -1.2
CCOC(=O)c1sc(NC(=O)CNCc2cccnc2)c(C(=O)OCC)c1C | i | 3.6
O=C(O)/C=C\C(=O)NC1CCCCC1 | i | -0.11
COc1ccc(C2CC(=O)n3nc(C45CC6CC(CC(C6)C4)C5)nc3S2)cc1OC (configuration not stated) | i | -0.53
O=C(Nc1ccc(C(=O)c2ccc(C(=O)O)c(C(=O)O)c2)cc1)c1ccccc1 | i | 0.78
O=C(Nc1cccc2ccccc12)c1ccc(Cn2cc(Cl)cn2)cc1 | i | -0.67
O=S(=O)(NCC(c1cccnc1)N1CCOCC1)c1cccs1 (configuration not stated) | i | -0.06
Cc1nc(=S)c2c([nH]1)-c1ccccc1CC21CCCCC1 | i | 0.24
CCn1c(C)nc2cc(C(=O)N/N=C/c3cccc(O)c3O)ccc21 | i | -0.16
CC(C)(C)c1ccc(-c2nc3c(C#N)c(-c4ccc5c(c4)OCO5)ccn3n2)cc1 | i | -1.2
CN(CC(=O)Nc1ccc(Cl)cc1)Cc1cc(=O)n2ccsc2n1 | i | 0.17
CCc1ccc(OC)c(S(=O)(=O)N2CCN(C(=O)c3ccco3)CC2)c1 | i | 1.2
Cc1ccc(NC(=O)c2cc(C)nc3ccccc23)c(C)c1 | -5.9* | 1.3*
CC(C)(C)C(=O)Nc1cc(S(=O)(=O)Nc2ccc(Cl)cc2)ccc1Cl | i | 0.32
CCOC(=O)N1CCC(NC(=O)C(Cc2ccccc2)NC(=O)c2ccco2)CC1 (configuration not stated) | i | 0.1
COc1ccccc1CNC(=O)[C@H](C)NC(=O)C1CCN(C(=O)[C@@H]2CCCN2C(=O)OC(C)(C)C)CC1 | i | -0.14
O=C1NC(=Nc2ccccc2Cl)S/C1=C\c1cccc([N+](=O)[O-])c1 | i | -2.3
Cc1nc2ccc(-c3nc4ccc(N)cc4[nH]3)cc2[nH]1 | i | -1.6
CCC(C)N(C)Cc1cccc(C2(O)CCN(S(=O)(=O)c3ccc(F)cc3)CC2)c1 (configuration not stated) | i | -0.7

# Additional results
# Values run as follows: KCNQ2 inh	KCNQ2 inh baseline
CCOC(=O)Cn1c2c(c(-c3ccccc3OC)cc1=O)CCCC2
  i	-0.03
CCOC(=O)C1CCN(C(=O)CN(c2ccc(OC)cc2)S(=O)(=O)c2c(C)noc2C)CC1
  i	-1.5
COc1ccc(NCC(=O)n2c(C)c(C)c3ccccc32)cc1OC
  i	-0.49
CN1CCN(C(=O)CN(c2cccc(Br)c2)S(=O)(=O)c2ccccc2)CC1
  i	0.48
Cc1ccc(Cn2nc(C)cc2C(=O)Nc2ccc(Cl)cc2)cc1
  i	2.1
CC1(C)COC(c2cccn2Cc2ccccc2Cl)=N1
  i	0.22
N#Cc1c(NCCN)nc(-c2ccco2)c2c1CCCC2
  i	2.4
Cc1ccc(/C=N/NC(=O)C[n+]2ccccc2)o1
  i	0.83
c1coc(Cn2c(-c3ccco3)nc3ccccc32)c1
  i	0.66
C[C@H](NC(=O)C1CCN(S(=O)(=O)c2ccccc2)CC1)C(=O)NCc1ccccn1
  i	0.13
O=C1CC(N(C(=O)c2ccco2)c2ccc(F)cc2)C(=O)N1c1ccc(F)cc1 (configuration not stated)
  i	-0.4
Cc1c(CNC(=O)C2CC2)c(-n2cccc2)n(Cc2ccccc2)c1C
  i	-0.6
OCCCNc1cc(-c2ccccc2)nc2cc(-c3ccc(F)cc3)nn12
  i	-0.72
COc1ccc(C(=O)CSc2nnnn2Cc2ccccc2)cc1
  i	2.2
Cc1c(NN=C(C#N)C#N)c(=O)n(-c2ccccc2)n1C
  i	-1.6

# Gathered by group: the entries above containing an aryl thioether with sulfur outside any ring
# Values run as follows: KCNQ2 inh	KCNQ2 inh baseline
Cc1ccc(-c2nc(SCC(=O)N(C)C3CCS(=O)(=O)C3)[nH]c2-c2ccc(C)cc2)cc1 (configuration not stated)
  i	-0.64
CSc1nc2ccc(NC(=O)c3ccc(=O)[nH]c3)cc2s1
  i	-0.62
COc1ccc(C(=O)CSc2nnnn2Cc2ccccc2)cc1
  i	2.2

# Back to the main list with the 2 entries that preceded the break.
# Values run as follows: KCNQ2 inh	KCNQ2 inh baseline
COc1ccc(C(=O)CSc2nnnn2Cc2ccccc2)cc1
  i	2.2
Cc1c(NN=C(C#N)C#N)c(=O)n(-c2ccccc2)n1C
  i	-1.6
O=C(c1ccoc1)N1CCC2(CC1)Oc1ccc(Cl)cc1C(=O)C21CC(c2cccnc2)=NO1 (configuration not stated)
  i	-0.38
CC(=O)C(C)Oc1ncn(-c2ccccc2)n1 (configuration not stated)
  i	-0.13
O=C(O)CSc1cccc2cccc(C(=O)O)c12
  i	-1.7
O=S(=O)(Nc1ccccc1)c1ccc(-c2cnc(C3CC3)o2)cc1
  i	-0.44
O=C(NCCc1ccccc1)c1cc2sccc2n1Cc1ccccc1
  i	-1.1
CC1=CCC(C(=O)O)(C(=O)N/N=C/c2cccs2)C(c2ccc(Cl)cc2)C1 (configuration not stated)
  i	-1.3
O=C(Nc1nc(-c2ccccn2)cs1)C12CC3CC(CC(O)(C3)C1)C2
  i	1.3
O=C(/C=C/c1cccc(F)c1)NNC(=O)c1ccncc1
  i	0.65
Cc1nc(SCC(=O)Nc2cc(C)on2)c2c(C)c(C)sc2n1
  i	-0.14
CC(=O)Nc1ccc(NC(=O)CNC(=O)c2sc3ccccc3c2Cl)cc1
  i	0.45
COc1ccc(Cl)cc1S(=O)(=O)n1c([N+](=O)[O-])cnc1C
  i	-0.79
O=[N+]([O-])c1ccc(N2CCN(CC3CCCCC3)CC2)cc1
  i	0.04
CC(C)C[C@@H](CO)N1CCN(Cc2ccc(O)cc2)CCC1=O
  i	-2.2
Cc1ccccc1CSCC(=O)NCc1ccco1
  i	-0.19
COc1ccc(C(=O)CC(=O)C(=O)Nc2cc([N+](=O)[O-])ccc2OC)cc1
  i	2.3
O=C(N/N=C(\Cc1ncc[nH]1)c1ccccc1)c1ccncc1
  i	-1.3
CC12c3ccccc3C(c3ccccc31)C1C(=O)N(c3cccnc3)C(=O)C12 (configuration not stated)
  i	-2
CN(C)c1ccc(Sc2nnc(NC(=O)Nc3ccc(Cl)cc3Cl)s2)cc1
  i	1.8
COc1ccc(-c2nc(CNS(=O)(=O)c3cc(OC)ccc3OC)cs2)cc1
  i	-2
Cc1sc2ncnc(N3CCC(C(=O)Nc4nc(-c5ccc(F)cc5)cs4)CC3)c2c1C
  i	-1.2
COc1ccc([N+](=O)[O-])cc1N(CC(=O)N1CCCC1)S(C)(=O)=O
  i	-0.23
CCC(=O)c1ccc(Oc2nc3c(c(=O)n(C)c(=O)n3C)n2CC)cc1
  i	0.2
Cc1cc(C)cc(C(=O)Nc2cc3c4c(c2)CC(=O)N4CCC3)c1
  i	1.4
Cc1ccccc1N1C(=O)c2sc3nc4c(c(=O)n3c2C1=O)CCC4
  i	0.02
O=C(CCC1COc2ccccc2O1)NCc1ccco1 (configuration not stated)
  i	-0.08
Cc1ccc(S(=O)(=O)N2CCN(C(=S)NCC3CCCO3)CC2)cc1 (configuration not stated)
  i	1
COc1ccc(S(=O)(=O)N2CCCC(C(=O)NCCC3=CCCCC3)C2)cc1 (configuration not stated)
  i	0.71
Cc1ccc(/C=C/C(=O)c2ccccc2)cc1
  i	1.3
COc1ccc(S(=O)(=O)N2CC3C4C=CC(C4)C3C2)cc1 (configuration not stated)
  i	1.1
O=C(NCc1ccccc1Cl)C1CCN(S(=O)(=O)c2ccc(F)cc2)CC1
  i	1.4
C=CCN1C(=O)C(C)NC1=S (configuration not stated)
  i	-1.5
CC(C)n1c(NCCO)nc2ccccc21
  i	0.16
Cc1ccc(CNC(=O)CCCc2ccccc2)cc1
  i	0.14
CCOc1ccc(NC(=O)CSc2ncn[nH]2)c([N+](=O)[O-])c1
  i	1.3
Cc1cccc(CSC(=N)N)c1
  i	0.31
C[C@H](NC(=O)[C@H](Cc1ccccc1)NC(=O)c1cc2cc(Cl)ccc2n1C)C(=O)O
  i	0.03
CCOc1ccc2c(c1)OC(c1ccc(OC)cc1)(C(F)(F)F)NC2=O (configuration not stated)
  i	0.14
COC(=O)CNC(=O)CSc1ccccn1
  i	-1.1
CCCN(C(=O)CSc1nnc(-c2ccoc2C)n1N)C1CCS(=O)(=O)C1 (configuration not stated)
  i	0.02
C[C@@H](NC(=O)[C@@H]1Cc2ccccc2CN1)C(=O)NC1CCCC1
  i	3
CN(C)S(=O)(=O)c1ccc(N2CCCC2)c(C(=O)NNC(=O)c2ccc(Br)cc2)c1
  -10*	-0.99*
Cn1cc(C(=O)Nc2ccc(F)c(Cl)c2)cn1
  i	-0.61
CN1CCN(C(=O)C2=C[C@H](c3coc4ccccc4c3=O)C[C@H](OCCCCO)O2)CC1
  i	-0.02
CC(=O)c1cccc(CN2CCCC(CCC(=O)NCc3ccccc3F)C2)c1 (configuration not stated)
  i	1.2

# A few values from the results shown.
# KCNQ2 inh baseline with `CCCN(C(=O)CSc1nnc(-c2ccoc2C)n1N)C1CCS(=O)(=O)C1` (configuration not stated) → 0.02
# KCNQ2 inh baseline with `C=CCN1C(=O)C(C)NC1=S` (configuration not stated) → -1.5

# High-throughput results deposited in PubChem by Johns Hopkins Ion Channel Center.

# The list is partial, so the mix of outcomes need not match the whole.
